NPYLR7 ag – agonists of mosquito NPYLR7 receptor, primary screen, cell-based, Aedes aegypti, calcium fluorescence, mosquito biting behavior | Aedes aegypti neuropeptide Y-like receptor 7 (NPYLR7) | HEK293T NPYLR7/Galpha15, GCaMP6s calcium fluorescence | activation, % at 10 µM | 270,000 tested, 0.15% active; in the data active means activation above about 40%;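 further: 0% = vehicle and 100% = reference agonist at the receptor; some compounds past the cut are filed as inactive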
NPYLR7 ag max-min – recorded beside NPYLR7 ag, whose call it bears; activation, %; measured here: Max-Min RFU normalised activation; some inactives read as strong as hits;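 span of the calcium signal over five minutes; 0% = vehicle and 100% = native peptide agonist; compound fluorescence can raise it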
Starred values were filed as active, the others as inactive; & = joins results of further samples. The list is partial (hit frequency here may not be typical).

Order of results: NPYLR7 ag, NPYLR7 ag max-min
CC1CCCCN1c1c([N+](=O)[O-])cc([N+](=O)[O-])c2nonc12 (stereo unspecified)
    1, 5
C=C(C)C(O)(C(=C)C)c1ccc(CN(CCCOC)Cc2cccs2)o1
    -3, -1
COc1cc(-c2nc3ccccn3c2NC(C)(C)CC(C)(C)C)ccc1OC(=O)c1ccccc1C
    -6, 0
CS(=O)(=O)N1CCC(NC(=O)c2cc(-c3cccs3)nc3ccccc23)CC1
    6, 5
Brc1cccc(-c2nnc(SCc3ncc(-c4ccccc4)o3)o2)c1
    2, 0
CC(C)Cc1cc(CNC(=O)Cc2ccc3c(c2)OCO3)on1
    0, -2
CN(Cc1c(F)cccc1Cl)C(=O)c1ccc2c(c1)CCC(=O)N2
    -3, -3
CCOC(=O)C(c1cc(OC)ccc1OC)C1C=CC(NC(=O)c2ccc(C(F)(F)F)c(F)c2)C1 (stereo unspecified)
    1, -5
Cc1ccccc1-n1ncc(C(C)NC(=O)c2ccco2)c1C (stereo unspecified)
    8&6, 4&-2
Cn1ncc2c(NC3CCCCC3)nc(N(CCO)Cc3ccccc3)nc21
    4, 2
CCOC(=O)N1CCC(NC(=O)c2nn(-c3ccccc3)c3c2CCCCC3)CC1
    15, 10
Cc1cc(C)cc(-n2nc3c(c2NC(=O)c2ccco2)CSC3)c1
    0, 1
CC12C(=O)N(Cc3nc(-c4ccccc4)n[nH]3)C(=O)C1[C@H]1C=C[C@@H]2C1 (stereo partly specified)
    4, 0
COc1cc2c(cc1OC)C(CNC(=O)C1CCCC1)N(C(=O)Nc1ccccc1F)CC2 (stereo unspecified)
    -1, 5
COc1cccc(C(=O)N2CCN(C(=O)c3cc4ccsc4n3Cc3ccccc3OC)CC2C)c1 (stereo unspecified)
    30, 29
Cc1nn(-c2ccc(Nc3ccc(NC(=O)COc4ccccc4)cc3)nn2)c(C)c1C
    -6, -12
COc1ccc(OCCOCCN2CCc3ccccc3C2)cc1
    1, -1
COc1ccc(Cl)cc1N1C(=O)CSC1c1ccccn1 (stereo unspecified)
    -5, -10
CC1CCN(C)c2ccccc2N1CCn1cncn1 (stereo unspecified)
    7, 4
CCOC(=O)CC(NC(=O)c1sccc1C)c1ccccc1OC (stereo unspecified)
    2, -1

Continued; the last five above are carried over.
Order of results: NPYLR7 ag, NPYLR7 ag max-min
Cc1nn(-c2ccc(Nc3ccc(NC(=O)COc4ccccc4)cc3)nn2)c(C)c1C
    -6, -12
COc1ccc(OCCOCCN2CCc3ccccc3C2)cc1
    1, -1
COc1ccc(Cl)cc1N1C(=O)CSC1c1ccccn1 (stereo unspecified)
    -5, -10
CC1CCN(C)c2ccccc2N1CCn1cncn1 (stereo unspecified)
    7, 4
CCOC(=O)CC(NC(=O)c1sccc1C)c1ccccc1OC (stereo unspecified)
    2, -1
COCC(C)N(Cc1ccccc1OC)C(=O)c1ccco1 (stereo unspecified)
    0, -4
CC(C)CN1CC(C(=O)NCc2cc(C(C)C)no2)CC1=O (stereo unspecified)
    24, 18
CC1CCC(C)N1c1cc(C(F)(F)F)nc(-c2ccncc2)n1 (stereo unspecified)
    -1, 10
CCc1nc(COC(=O)c2cc(Br)c[nH]2)cs1
    -4, -4
CCCC(C)(C)C(=O)N1CCC1(C)C(=O)NS(=O)(=O)c1ccc(C(C)(C)C)cc1 (stereo unspecified)
    17, 17
COc1cc2c(cc1NC(=S)NCCN(C)C)oc1ccccc12
    -10, -10
CCN1CCCC1CNC(=O)CCC1CCN(CCCC(F)(F)F)CC1 (stereo unspecified)
    5, -1
Cc1ccc(-c2nnc3c4ccccc4c(C)nn23)cc1S(=O)(=O)N1CCN(CCO)CC1
    -17, -27
CCC(C(=O)Nc1c2c(nn1CC(=O)NCCOC)CSC2)c1ccccc1 (stereo unspecified)
    -7, -2
CCOC(=O)c1ccc2c(c1)nc(SCc1cc(F)ccc1Br)n2Cc1ccccc1
    -5, -7
CCn1c(-c2ccccc2F)nc2cc(NC(C)=O)cc(C(=O)NCC(C)Oc3cccnc3)c21 (stereo unspecified)
    10, -1
CC(=O)Oc1c(-c2ccc(NC(=O)c3ccc4c(c3)OCO4)cc2)c(-c2ccc(F)cc2)nn1-c1cc(C)ccc1C
    -1, 6
Cc1nc(N(c2ccccc2)c2ccccc2)sc1C
    5, 2
N=C1C(c2ccccc2)C(=O)CN1CCc1ccc2c(c1)OCCO2 (stereo unspecified)
    9, 2
CC(=O)NCC(=O)NC1CC(C)(C)Cc2nc(N(C)Cc3ccccc3)ncc21 (stereo unspecified)
    7, 1
CCc1ccc(C2CCCN2C(=O)NCC2CN3CCCC3CO2)o1 (stereo unspecified)
    0, -2
O=C1CC(Nc2ccc(F)cc2)C(=O)N1c1ccccc1 (stereo unspecified)
    -7, -10
Cc1ccccc1NC(=O)NCCNc1nc(-c2ccccc2Cl)nc2ccccc12
    11, 18
Cc1nn(-c2ccccc2)c2nc(Cc3ccccc3)nc(N3CCN(S(=O)(=O)c4ccc(Cl)cc4)CC3)c12
    8, 12
O=C(c1csc(COc2cccc3ccccc23)n1)N1CCOCC1
    -11, -13
CC(C)(C)C1CCC2(CC1)Nc1ccccc1C(=O)N2N (stereo unspecified)
    -5, -14
NC1=NC2CS(=O)(=O)CC2S1 (stereo unspecified)
    4, 25
Cc1ccccc1CN1CCN(c2nc3c(c(=O)[nH]c(=O)n3C)n2Cc2ccccc2F)CC1
    -5, -8
COC(=O)c1ccc(Cl)cc1OCC(=O)NC1CCS(=O)(=O)C1 (stereo unspecified)
    4, 3
O=C(CNc1cccc2c1OCCO2)Nc1cc(Cl)ccc1F
    0, 0
N=C1C(c2nc3ccccc3s2)C(=O)CN1N1C(=O)c2ccccc2C1=O (stereo unspecified)
    3, 2
O=C1c2ccccc2NC(c2c(F)cccc2Cl)N1C1CC1 (stereo unspecified)
    3, 0
O=C(NCc1ccc2c(c1)OCCCO2)c1c(F)cccc1Cl
    5, 5
COCC(=O)N1CCCC1C(=O)Nc1cccc(-c2cc3ccccc3[nH]2)c1 (stereo unspecified)
    4, 5
CN1CCN(S(=O)(=O)c2ccc3c(c2)Cc2cc(S(=O)(=O)N4CCN(C)CC4)ccc2-3)CC1
    7, 6
COc1ccc(NC(=O)CSc2ncccc2C(=O)N2CCC(Cc3ccccc3)CC2)cc1OC
    -8, -5
Cc1nn(C)c(C)c1C(=O)C(N)=O
    5, 5
CN(C)CCC(c1ccc(Cl)cc1)c1ccccn1 (stereo unspecified)
    -5&-1&7, -9&-3&-7
COCC(NC1CCC2(CCNCC2)CC1)c1ccccn1 (stereo unspecified)
    0, -1
O=c1ccnc(SCc2cn3cccnc3n2)[nH]1
    7, 6
CC(=O)N[C@@H]1C[C@H](Cc2ccccc2)O[C@H](c2cccc3nsnc23)C1
    0, -5
C#Cc1cccc(NC(=O)CN(C)C(=O)CCc2ccc(OC)c(F)c2)c1
    -5, -10
CCOC(=O)c1c(NC(=O)c2cc(C3CC3)on2)sc(C(C)=O)c1C
    0, 0
COCCN(CC(N)=O)S(=O)(=O)c1ccc(C)c(C(F)(F)F)c1
    8, 6
O=C(O)c1csc(CSc2nnc(Cc3ccccc3)n2-c2ccc(Cl)c(Cl)c2)n1
    14, 1

Five consecutive entries from above, for reference:
Order of results: NPYLR7 ag, NPYLR7 ag max-min
O=c1ccnc(SCc2cn3cccnc3n2)[nH]1
    7, 6
CC(=O)N[C@@H]1C[C@H](Cc2ccccc2)O[C@H](c2cccc3nsnc23)C1
    0, -5
C#Cc1cccc(NC(=O)CN(C)C(=O)CCc2ccc(OC)c(F)c2)c1
    -5, -10
CCOC(=O)c1c(NC(=O)c2cc(C3CC3)on2)sc(C(C)=O)c1C
    0, 0
COCCN(CC(N)=O)S(=O)(=O)c1ccc(C)c(C(F)(F)F)c1
    8, 6

Next results:
Order of results: NPYLR7 ag, NPYLR7 ag max-min
Cc1cc(=O)n2c(n1)NC(N1CCC(Cc3ccccc3)CC1)=NC2c1cccnc1 (stereo unspecified)
    -1, -4
CC1CCC(C(C)C)C(OC(=O)Cn2cnc3c2c(=O)n(C)c(=O)n3C)C1 (stereo unspecified)
    2, 3
COC(=O)c1cn(C(=O)c2cc(OC)c(OC)c(OC)c2)c2ccccc12
    7, 6
COc1ccc2c(c1)CCc1cc(CCC(=O)NCCN3CCCC3)n(CCc3cccc(F)c3)c1-2
    31, 17
O=C(c1cccc2nccnc12)N1CCC(C(=O)N2CCCC2)CC1
    20, 10
CCn1cc(-c2c(-c3ccccc3)ncn2Cc2ccc(O)c(OC)c2)c(C)n1
    12, 6
COc1cc(C(C)=O)ccc1Oc1ncnc2c1cnn2-c1ccc(C)c(C)c1
    1, 0
CC(NC(=O)c1cccc([N+](=O)[O-])c1)c1nnc(SCc2ccc(F)cc2)n1-c1ccc([N+](=O)[O-])cc1 (stereo unspecified)
    -1, 2
COc1cccc(C2C(=C(O)c3ccc(F)cc3)C(=O)C(=O)N2CCN(C)C)c1OC (stereo unspecified)
    1, -4
COCCc1noc(CN2CCC3(C2)CN(C)C(=O)O3)n1 (stereo unspecified)
    2, -2
COC(=O)C(C)Sc1n[nH]c(=S)s1 (stereo unspecified)
    12, 5
COc1cccc(N2C(=O)c3ccccc3NC2c2ncc[nH]2)c1 (stereo unspecified)
    -1, -8
O=C(CC(C(=O)O)N1CCCCC1)Nc1cccnc1 (stereo unspecified)
    -2, -4
Cc1nc(CCNC(=O)c2cn(CCN3CCOCC3)nn2)sc1C
    2, 0
CCN(CC1CCOC1)C(=O)CN1C(=O)CSc2ccccc21 (stereo unspecified)
    8, 6
CCCc1nn2c(N)c(C#N)nnc2c1-c1ccc(F)cc1
    -12, -20
COc1ccc2[nH]cc(C3CCN(C(=O)c4cc(C(C)(C)C)nn4C)CC3)c2c1
    19, 29
COc1cccc(CNC(=O)Cn2c3ccc(F)cc3c3ncn(Cc4ccccc4)c(=O)c32)c1
    -1, -4
COc1ccc(C2SCCN2C(=O)c2cc(Cl)cc(Cl)c2)c(OC)c1 (stereo unspecified)
    -4, -2
Cc1ccc(-c2c(C)nn3c(NC4CCCC4)cc(C)nc23)cc1
    -6, -8
CCCc1[nH]n(-c2ccc(Cl)cc2)c(=O)c1C1=C([n+]2cccc(C)c2)C(=O)N(CCOC)C1=O
    -3, 3
COc1ccc(C(=O)NC(C)(C)Cc2ccccc2)c(OC)n1
    1, 7
O=c1oc2c(c(O)c1Sc1nnnn1-c1ccccc1)c(=O)n(-c1ccccc1)c1ccccc21
    0, -1
CCSc1nnc2c(n1)OC=Nc1ccc(Br)cc1-2
    -6, -7
O=C(CSc1cn(CC(=O)N2CCOCC2)c2ccccc12)NC1CCCC1
    -5, -8
CC(=O)N1C[C@H](Oc2ccccn2)[C@H]2C[C@@H]1CC[C@H]2N1CCOCC1
    0, 14
Cc1cc(=O)[nH]c(-n2nc(-c3cccs3)cc2NC(=O)CSCc2ccccc2)n1
    0, 0
CCOc1ccc(CNC(C)c2cnn(-c3cccc4ccccc34)c2C)cc1CO (stereo unspecified)
    4, 0
Cc1nn(-c2ccc(F)cc2)c(C)c1CNC1CCC(=O)N(CC2CC2)CC1 (stereo unspecified)
    -4, -3
NC(=O)c1coc(-c2csc(-c3ccccc3O)n2)c1
    0, 31
CCOC(=O)c1c(C)n(-c2ccccc2)c2ccc(OC(=O)c3cc(Cl)cc(Cl)c3)cc12
    -1, -5
CCCN1C(=O)c2ccccc2N(CC(=O)NNc2cccc(Cl)c2)C(=O)C1Cc1ccccc1 (stereo unspecified)
    -1, 14
Cc1cc(CNC(=O)CCCn2nnnc2CN2CCc3ccccc3C2)on1
    2, 0
CCOc1ccc(Oc2ccccc2NC(C)=O)cc1
    0, -3
CCOC(=O)CNC(=O)N(CCOC)CC(=O)N(CCc1c[nH]c2ccccc12)Cc1ccc(C(F)(F)F)cc1
    15, 25
COc1cc(CN2CCC(Cc3ccc(-n4cccc4)cc3)CC2)cc(OC)c1
    0, 0
O=C(c1nc2ccccc2s1)N1CCN(C(c2ccccc2)c2ccc(Cl)cc2)CC1 (stereo unspecified)
    5, 4
CC(C)CN(CCC#N)C(=O)C1CCN(S(=O)(=O)c2ccccc2)CC1
    1, -1
Cc1ccccc1OCC(=O)NC(=S)NNC(=O)c1ccc([N+](=O)[O-])cc1
    7, 12
COCC(C)NC(=O)c1cc(S(=O)(=O)Nc2ccccc2F)ccc1Cl (stereo unspecified)
    1, 0
COc1cccc(-c2cccc(-c3ccc(NC(=O)C(F)(F)C(F)(F)C(F)(F)F)cc3)n2)c1
    6, 3
COc1ccc(-c2nc(-c3nonc3N)no2)cc1
    -1, -6
COc1ncccc1C(=O)NC1CCCc2nc(-c3ccccc3)ncc21 (stereo unspecified)
    -3, -6
Cc1nc(CC(=O)N2CCCC3(CC2)CN(C)C(=O)O3)cs1 (stereo unspecified)
    3, 2
CCC(C(=O)N(Cc1cc(NC(=O)C2CCC2)ccc1N(C)C)C1CC1)c1ccccc1 (stereo unspecified)
    21, 30
N#Cc1ccc(-c2csc(NC(=O)c3cc(F)cc(F)c3)n2)cc1
    1, 3
COc1ccc(C(=O)N2CCN(c3ncccc3C(=O)NCCc3ccc(OC)c(OC)c3)CC2)c(OC)c1
    8, 3
OC1(c2cccs2)C[N+]2=C(SCC2)N1c1ccccc1 (stereo unspecified)
    -2&2&6, -6&7&3
CCOc1ccccc1NC(=O)N(Cc1ccncc1)C1CCN(C)CC1
    14, 9
COCCCNC(=O)c1sc2ccccc2c1Cl
    -11, 1
CC(C)(C)c1cc2nc(C(=O)N3CCN(C/C=C/c4ccccc4)CC3)cc(-c3ccccc3F)n2n1
    1, 7
